From PubChem BioAssay
VACV mCherry inh: vaccinia inhibition (mCherry reporter); AID 720579; Potency, µM (series often up to 36.5 µM), inactives show at the highest dose activity change, negative = inhibition, usual class: inhibitors; Vaccinia virus mCherry reporter infection, fluorescence; about a quarter of the inactives have no number; actives 0.63% (n = 310,000); active = well fitted inhibition curve with a large enough effect; inconclusive = small, poorly fitted or top-dose-only effect; inactive = no such curve, though single readings can be large or run the other way; tested in A549 cells; note: nearly all actives have a fitted effect of over 35% in size; inactives centre near -10
Vaccinia Venus: inhibitors of vaccinia virus (Venus reporter). Vaccinia virus Venus reporter expression, fluorescence. actives 0.46% (n = 330,000). Potency, µM (titrated, usually from 36.5 µM), inactives show at the highest dose activity change, negative = inhibition, usual class: inhibitors. AID 720580; active means well fitted inhibition curve with a large enough effect; inconclusive means small, poorly fitted or top-dose-only effect; inactive means no such curve, though single readings can be large or run the other way; tested in A549 cells; note: nearly all actives have a fitted effect of over 30% in size; inactives centre near -10
Starred values were filed as active, the others as inactive; & = joins results of further samples; [ ] = dose if it differs, or a comment. % is set by controls: 0 for no effect and ±100 for the full control effect; potency is the fitted concentration of half-maximal effect.

COc1ccc(F)cc1C(=O)C1CCCN(C(=O)CSc2ccccn2)C1 (stereo not given) was read as VACV mCherry inh -14% and Vaccinia Venus -3%.
COc1ccc(N2CCN(C(=O)c3sc4ncn(CC(=O)N5CCCCC5C)c(=O)c4c3C)CC2)cc1 (stereo not given) was read as VACV mCherry inh inactive[7.34 µM] and Vaccinia Venus 0%[7.34 µM].
For O=C(N/N=C1\C/C(=N\NC(=O)c2ccncc2)c2ccccc21)c1ccncc1 the results were VACV mCherry inh inactive and Vaccinia Venus 15%.
`Cc1ccc(Cl)cc1N1CCN(C(=O)c2ccc3c(c2)N(Cc2ccccc2F)C(=O)c2ccccc2S3(=O)=O)CC1` gave VACV mCherry inh -6% and Vaccinia Venus -5%.
COc1cccc(-c2cc(C(=O)Nc3ccc(F)cc3)[nH]n2)c1 was read as VACV mCherry inh -4% and Vaccinia Venus -13%.
`Cc1ccc(NC(=O)Cc2csc(-c3ccccc3)n2)cc1F` gave VACV mCherry inh inactive and Vaccinia Venus -11%.
For COc1ccc(C(CNC(=O)c2ccc(NS(=O)(=O)c3ccc(F)c(C)c3)cc2)N2CCCC2)cc1 (stereo not given) the results were VACV mCherry inh -29% and Vaccinia Venus -19%.
COc1ccc(OCC(=O)Nc2ccc(C)c(S(=O)(=O)N(C)C)c2)cc1 was read as VACV mCherry inh -17% and Vaccinia Venus -27%.
Fc1ccc(NC(=S)NC23CN4CN(CN(C4)C2)C3)cc1 was read as VACV mCherry inh inactive and Vaccinia Venus -1%.
Screening O=C(C1CCN(Cc2ccccc2)CC1)N1CCN(C/C=C/c2ccccc2)CC1 returned VACV mCherry inh -7% and Vaccinia Venus -16%.
`CCN1CCN(C(=O)c2ccc3c(c2)c(C)c(C)n3Cc2ccccc2)CC1` gave VACV mCherry inh -2% and Vaccinia Venus -23%.
`Cc1c(F)cccc1NS(=O)(=O)c1ccc(N2CCCC2=O)cc1` gave VACV mCherry inh -17% and Vaccinia Venus -1%.
Screening N#Cc1c(-c2ccccc2)nc(-c2ccccc2)nc1N1CCOCC1 returned Vaccinia Venus -7%.
For COc1ccc2oc(C(=O)OCC(=O)N3C(C)CCCC3C)c(C)c2c1 (stereo not given) the results were VACV mCherry inh -14% and Vaccinia Venus 1%.
Cc1nc(NC(=O)c2ccc(F)cc2)nc2cc3c(cc12)OCO3 was read as VACV mCherry inh -11% and Vaccinia Venus -8%.
`C[C@@H]1C(NC(=O)c2ccccc2)CC2CC1C2(C)C` (stereo not given in full) gave VACV mCherry inh 9% and Vaccinia Venus -13%.
For CC(=O)Nc1ccc(C(=O)N/N=C(\C)CC(=O)Nc2ccc(OCc3ccccc3)cc2)cc1 the results were VACV mCherry inh -10% and Vaccinia Venus -21%.
`COc1ccccc1C(=O)Nc1cc(-c2ccc(C)cc2)no1` gave VACV mCherry inh -14% and Vaccinia Venus -15%.
For Cc1noc(C)c1S(=O)(=O)N(CC(=O)NCc1ccc(Cl)cc1)c1ccc2c(c1)OCO2 the results were VACV mCherry inh inactive and Vaccinia Venus -5%.
O=C(CCN1CCOCC1)NC1CCCN(Cc2ccccc2F)C1 (stereo not given) was read as VACV mCherry inh inactive and Vaccinia Venus -9%.
COc1cc(NC(=S)NC2CC2)c(OC)cc1Cl was read as VACV mCherry inh inactive and Vaccinia Venus -1%.
For CCOC(=O)N1CCN(C(=O)c2ccc(CNS(=O)(=O)c3ccc(NC(C)=O)cc3)cc2)CC1 the results were VACV mCherry inh -10% and Vaccinia Venus -2%.
COc1ccc(S(=O)(=O)N(C)C)cc1NC(=O)CSc1ncccn1 was read as VACV mCherry inh inactive and Vaccinia Venus -19%.
O=C(Nc1ccc(N2CCN(c3ccc(O)cc3)CC2)cc1)Oc1ccccc1 was read as VACV mCherry inh inconclusive and Vaccinia Venus -19%.
For CCCCn1nc2cc(C(=O)NCCc3cccs3)ccc2c1OCC the results were VACV mCherry inh inconclusive and Vaccinia Venus inconclusive.
`CC(C)OC(=O)/C(=C/c1ccc(Br)cc1)NC(=O)c1ccco1` gave VACV mCherry inh -3% and Vaccinia Venus -18%.
`CC1(C)CC(=O)C=C(c2cccc3c2oc2ccccc23)C1` gave VACV mCherry inh -12% and Vaccinia Venus -22%.
Screening COc1cc(/C=C2\C(=N)N3N=C(CC(=O)N4CCOCC4)SC3=NC2=O)cc(OC)c1OC returned VACV mCherry inh -1% and Vaccinia Venus -11%.
Screening Cn1cccc1CC(=O)N/N=C/C=C/c1ccco1 returned VACV mCherry inh inactive and Vaccinia Venus 2%.
For Cc1ccccc1OCC(=O)Nc1cc(Cl)ccc1Oc1ccccc1 the results were VACV mCherry inh -6% and Vaccinia Venus 1%.
For COc1ccc(N2C3=C(CC4=C2CC(C)(C)CC4=O)C(=O)CC(C)(C)C3)cc1 the results were VACV mCherry inh inconclusive and Vaccinia Venus -26%.
O=C(OCc1ccccc1)C1=[N+]([O-])OC(C(=O)OCc2ccccc2)C1c1c[nH]c2ccccc12 (stereo not given) was read as Vaccinia Venus -16%.
Screening O=C(CNC(=O)C12CC3CC(CC(C3)C1)C2)N1CCN(S(=O)(=O)c2cccs2)CC1 returned VACV mCherry inh inconclusive and Vaccinia Venus -23%.
`COc1ccc(C2/C=C\CN(C(=O)Nc3ccccc3-c3ccccc3)CC(=O)N2Cc2ccc(F)cc2)cc1` (stereo not given) gave VACV mCherry inh -13% and Vaccinia Venus inconclusive.
`CCCn1c(NC(=O)c2ccc(C)cc2)nc2ccccc21` gave VACV mCherry inh -22% and Vaccinia Venus -24%.
N=c1oc2ccc3ccccc3c2cc1-c1nnc2n1CCCCC2 was read as VACV mCherry inh -15% and Vaccinia Venus -4%.
O=C(C=Cc1ccc(Cl)s1)c1ccc(Cl)s1 was read as VACV mCherry inh inactive and Vaccinia Venus -15%.
Screening O=C(C(c1ccccc1)c1ccccc1)N(Cc1ccco1)C1CCS(=O)(=O)C1 (stereo not given) returned VACV mCherry inh -12% and Vaccinia Venus -13%.
O=C(Nc1ccc2c(c1)[nH]c(=O)c1ccccc12)C(F)(F)F was read as VACV mCherry inh inactive and Vaccinia Venus -3%.
Screening CCC(C)n1nccc1NC(=O)C(C)Cl (stereo not given) returned VACV mCherry inh -2% and Vaccinia Venus -13%.
Screening COc1ccc(CNC(=O)C2(c3cccs3)CCOCC2)cc1 returned VACV mCherry inh 2% and Vaccinia Venus 13%.
COc1ccc(C(O)c2ncc(-c3ccccc3)[nH]2)cc1 (stereo not given) was read as VACV mCherry inh 11% and Vaccinia Venus 0%.
For O=C(NCCC(=O)N(CCc1ccccc1)Cc1ccccc1)c1ccccc1Cl the results were VACV mCherry inh -6% and Vaccinia Venus -8%.
`Cc1ccc(-c2nc(C#N)c(N3CCC(C(N)=O)CC3)o2)cc1` gave VACV mCherry inh -9% and Vaccinia Venus 0%.
Cc1ccc(-c2cn3c(n2)sc2cc(C(=O)NCc4cccs4)ccc23)c(C)c1 was read as VACV mCherry inh -17% and Vaccinia Venus -9%.
COc1ccc(CNC(=O)CCN2C(=S)NC(C)(C)CC2C)cc1 (stereo not given) was read as VACV mCherry inh -4% and Vaccinia Venus -8%.
For O=C(Nc1cccc(S(=O)(=O)NC2=NCCCCC2)c1)c1cc(-c2ccc(Cl)cc2)nc2ccccc12 the results were VACV mCherry inh inconclusive and Vaccinia Venus -17%.
For Cc1ccc(NC(=O)c2cc(S(=O)(=O)N3CCCC3)cn2C)cc1C the results were VACV mCherry inh inactive and Vaccinia Venus -12%.
Screening O=C(Nc1ccc(Cl)cn1)c1ccc(Oc2ccccc2)cc1 returned VACV mCherry inh inactive and Vaccinia Venus -25%.
Screening COc1cccc(CN(C)CCCn2cnc(C(=O)Nc3ccc(C)c(C)c3)n2)c1 returned VACV mCherry inh -6% and Vaccinia Venus -21%.
For O=C(CCN1N=C(c2ccccc2)CCC1=O)NCCc1ccc(Cl)cc1 the results were VACV mCherry inh -4% and Vaccinia Venus -8%.
For O=C(O)C1CCN(C(=O)COc2ccc(Br)cc2)CC1 the results were VACV mCherry inh inactive and Vaccinia Venus -15%.
For O=C(O)Cc1sc(-c2ccccc2Cl)nc1-c1ccccc1 the results were VACV mCherry inh inactive and Vaccinia Venus -15%.
`O=C(N/N=C/c1ccsc1)c1cc(-c2cccs2)nc2ccccc12` gave VACV mCherry inh -11% and Vaccinia Venus inconclusive.
`CCC(c1nnnn1Cc1ccco1)N(CCN1CCOCC1)Cc1cc2cc(C)ccc2[nH]c1=O` (stereo not given) gave Vaccinia Venus 9%.
Screening O=C(Nc1ccccc1F)c1ccc([N+](=O)[O-])s1 returned VACV mCherry inh -19% and Vaccinia Venus inconclusive.
Screening CC1CN(S(=O)(=O)c2ccc(C(=O)NC3CCCCC3)cc2)CC(C)O1 (stereo not given) returned VACV mCherry inh -12% and Vaccinia Venus -11%.
`Cc1nn(-c2ccc(F)cc2)c(Cl)c1/C=N/NC(=O)c1cccc(S(=O)(=O)N2CCCC2)c1` gave VACV mCherry inh inactive and Vaccinia Venus -1%.
For COc1cccc(NC(=O)c2ccc3c(c2)OCCO3)c1 the results were VACV mCherry inh 0% and Vaccinia Venus 1%.
CCCCn1ccnc1C(=O)c1ccc(S(=O)(=O)N(CCOC)CCOC)cc1 was read as VACV mCherry inh inactive and Vaccinia Venus -22%.

Five neighbouring records from above, quoted:
Screening COc1ccc(CNC(=O)C2(c3cccs3)CCOCC2)cc1 returned VACV mCherry inh 2% and Vaccinia Venus 13%.
COc1ccc(C(O)c2ncc(-c3ccccc3)[nH]2)cc1 (stereo not given) was read as VACV mCherry inh 11% and Vaccinia Venus 0%.
For O=C(NCCC(=O)N(CCc1ccccc1)Cc1ccccc1)c1ccccc1Cl the results were VACV mCherry inh -6% and Vaccinia Venus -8%.
`Cc1ccc(-c2nc(C#N)c(N3CCC(C(N)=O)CC3)o2)cc1` gave VACV mCherry inh -9% and Vaccinia Venus 0%.
Cc1ccc(-c2cn3c(n2)sc2cc(C(=O)NCc4cccs4)ccc23)c(C)c1 was read as VACV mCherry inh -17% and Vaccinia Venus -9%.

3 compounds from above, sorted by formula weight, ascending.
Screening O=C(Nc1ccccc1F)c1ccc([N+](=O)[O-])s1 returned VACV mCherry inh -19% and Vaccinia Venus inconclusive.
COc1ccc(C(O)c2ncc(-c3ccccc3)[nH]2)cc1 (stereo not given) was read as VACV mCherry inh 11% and Vaccinia Venus 0%.
For COc1cccc(NC(=O)c2ccc3c(c2)OCCO3)c1 the results were VACV mCherry inh 0% and Vaccinia Venus 1%.

Carrying on:
`CC1=NCCc2c1[nH]c1ccccc21` gave VACV mCherry inh 7% and Vaccinia Venus 2%.
Screening N/C(=N/OC(=O)c1ccccc1Cl)c1nonc1N returned VACV mCherry inh inactive and Vaccinia Venus -10%.
For c1ccc(-c2nc3nc4ccccc4nc3n2CC2CCCO2)cc1 (stereo not given) the results were VACV mCherry inh -9% and Vaccinia Venus -7%.
For CCOC(=O)CCNC(=O)N1CCCC(CNS(=O)(=O)Cc2ccccc2)C1 (stereo not given) the results were VACV mCherry inh -5% and Vaccinia Venus -6%.
`COc1ccc(-c2c(C)nn3c(C(F)(F)F)cc(C)nc23)cc1OC` gave VACV mCherry inh -12% and Vaccinia Venus -8%.
COc1ccc(C(=O)c2oc3ccc(OC)cc3c2NC(C)=O)cc1 was read as VACV mCherry inh -26% and Vaccinia Venus -4%.
For CN1C(=O)[C@H]2[C@@H](/C=C/c3ccccc3)N3C(=O)CN(CCO)C(=O)[C@@]3(C)[C@H]2C1=O the results were VACV mCherry inh inactive and Vaccinia Venus -6%.
For COc1ccccc1CCNC(=O)C1CCN(c2nc3ccccc3nc2C(F)(F)F)CC1 the results were VACV mCherry inh -5% and Vaccinia Venus -6%.
CCc1c(C)n([O-])c2c([n+]1=O)CCC2 was read as Vaccinia Venus -11%.
Cc1cccc(-c2nc(CCNC(=O)c3ccccc3Br)cs2)c1 was read as VACV mCherry inh -12% and Vaccinia Venus -16%.
`COc1cccc(C(C(=O)NC2CCCC2)N(Cc2ccc(C)cc2)C(=O)c2ccco2)c1OC` (stereo not given) gave VACV mCherry inh -27% and Vaccinia Venus inconclusive.
Screening O=C(Nc1ccccc1N1CCCCC1)c1ccc(Cl)c([N+](=O)[O-])c1 returned VACV mCherry inh -21% and Vaccinia Venus inconclusive.
O=C(CCNS(=O)(=O)c1ccccc1C(F)(F)F)N1CCN(c2ccccc2O)CC1 was read as VACV mCherry inh inactive and Vaccinia Venus -17%.
CC(=NN1CC(=O)NC1=O)c1ccc([N+](=O)[O-])o1 was read as VACV mCherry inh 0% and Vaccinia Venus -6%.
`COc1ccc([C@H]2CC(=O)C=C(c3c(OC)cccc3OC)C2)cc1` gave VACV mCherry inh inconclusive and Vaccinia Venus inconclusive.
O=C(Nc1ccc(Cl)c(C(F)(F)F)c1)[C@@H]1CC=C[C@@H]2CCN(C3CC3)C(=O)[C@@H]21 was read as VACV mCherry inh -18% and Vaccinia Venus -20%&-8%.
c1ccc(Nc2nc(N3CCCCC3)nc(N3CCCCC3)n2)cc1 was read as VACV mCherry inh -13% and Vaccinia Venus -4%.
For COc1ccc(N(CC(=O)NCCSc2ccccc2)S(=O)(=O)c2ccccc2)c(OC)c1 the results were VACV mCherry inh -19% and Vaccinia Venus -22%.
Screening O=C(O)CCN1CCc2ccccc2C1c1cccs1 (stereo not given) returned VACV mCherry inh inactive and Vaccinia Venus 6%.
`CCOc1ccccc1CNS(=O)(=O)c1cc(-c2onc(C)c2C)ccc1OC` gave VACV mCherry inh -15% and Vaccinia Venus -13%.
